# Rango dissoc inh – inhibition of RanGTP-driven Rango-importin beta dissociation; AID 540253; 340,000 tested, 0.071% active; O95149+P62826; Biochemical FRET Rango-importin beta, RanGTP-induced dissociation; Potency, µM (doses to about 46.1 µM), for the others: top-dose activity change, negative = inhibition; active means falling FRET ratio curve, often poorly fitted, with flat reads before Ran was added; inconclusive means other falling curves, or compound fluorescence or quenching; inactive means flat or rising ratio curve;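 further: potency means the concentration at half of the fitted maximal effect; % of control where 0% means no effect; nearly all actives have a fitted effect of over 45% in size; -100% = wells without RanGTP and RCC1; the record marks most hits as doubtful in a second field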
#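 Two FRET readings bracket the reaction: one 5 min after compound meets Rango–importin beta, another 45 min after RanGTP-RCC1 (0.6 uM Ran, 0.2 uM RCC1, 2 mM GTP) is added. Only the second defines inhibition.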
# miR-21 reporter – miR-21 reporter, rising signal; HeLa miR-21 FLuc reporter, luciferase, 48 h; Potency, µM (series often up to 38.3 µM), inactives show at the top dose reporter change, positive = more light; 340,000 tested, under 10 active; active = well fitted rising curve with a large enough effect; inconclusive = small, poorly fitted or top-dose-only effect; inactive = no such curve, though single readings can be large or run the other way;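 further: % of control where 0% means no effect; miR-21 action dims this reporter so a rising signal means less miR-21 action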
#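 HeLa cells endogenously expressing miR-21, stably carrying CMV-driven firefly luciferase with a downstream miR-21 binding site, 2000 cells/well. Titrations up to approximately 40 uM, 48 hours; luciferase luminescence read.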
# Rango-impB inh – Rango-importin beta binding inhibition; Rango CFP/YFP FRET sensor + importin beta, 45 min; AID 540263; Potency, µM (series often up to 92.2 µM), for the others: at the highest dose inhibition of complex formation; Q14974; 340,000 tested, 0.031% active; active = rising FRET ratio curve, often small or poorly fitted; inconclusive = mostly compound fluorescence or quenching in the first reads; inactive = flat curves in all reads;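 further: potency means the concentration at half of the fitted maximal effect; 0% = DMSO wells and 100% = buffer wells lacking importin beta; nearly all actives have a fitted effect of over 15% in size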
# Target sequence (Q14974 whole entry, looked up): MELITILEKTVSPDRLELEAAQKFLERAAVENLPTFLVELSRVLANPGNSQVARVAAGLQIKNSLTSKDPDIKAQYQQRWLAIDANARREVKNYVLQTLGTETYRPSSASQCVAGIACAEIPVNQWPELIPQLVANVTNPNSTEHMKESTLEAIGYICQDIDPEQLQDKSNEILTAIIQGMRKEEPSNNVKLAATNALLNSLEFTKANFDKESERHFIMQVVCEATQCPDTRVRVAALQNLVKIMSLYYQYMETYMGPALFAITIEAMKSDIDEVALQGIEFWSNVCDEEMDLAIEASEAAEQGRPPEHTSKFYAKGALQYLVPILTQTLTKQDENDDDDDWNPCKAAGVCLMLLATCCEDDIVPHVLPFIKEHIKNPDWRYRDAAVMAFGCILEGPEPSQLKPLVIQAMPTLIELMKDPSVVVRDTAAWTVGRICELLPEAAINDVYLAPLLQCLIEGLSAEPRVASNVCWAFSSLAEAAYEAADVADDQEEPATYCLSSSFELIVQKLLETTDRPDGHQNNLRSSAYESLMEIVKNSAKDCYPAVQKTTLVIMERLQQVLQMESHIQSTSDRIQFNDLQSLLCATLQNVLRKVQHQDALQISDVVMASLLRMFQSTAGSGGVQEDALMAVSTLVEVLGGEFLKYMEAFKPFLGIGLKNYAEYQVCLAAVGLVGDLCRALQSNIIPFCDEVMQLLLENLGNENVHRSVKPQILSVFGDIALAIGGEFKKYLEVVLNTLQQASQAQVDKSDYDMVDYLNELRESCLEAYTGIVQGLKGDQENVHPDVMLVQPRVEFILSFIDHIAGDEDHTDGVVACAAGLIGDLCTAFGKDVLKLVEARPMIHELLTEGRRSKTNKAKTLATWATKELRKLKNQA
#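 FRET biosensor Rango (snurportin 1 IBB between N-terminal EYFP and C-terminal Cerulean), 50 nM in PBS/1 mM DTT/0.02% Tween-20/0.1% BSA, preincubated 5 min RT with compound; 0.125 microM importin beta added, 45 min RT, CFP/YFP FRET ratio read.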
# GLA inh pH 4.5 – alpha-galactosidase A (human) inhibition, pH 4.5. P06280. purified enzyme, 4-MU-alpha-Gal fluorescence, pH 4.5. activity change, negative = inhibition, % at 105 µM. 230,000 tested, under 10 active; inconclusive = small, poorly fitted or top-dose-only inhibition, or a rising curve; inactive = flat fitted curve, though single readings scatter; no compound was filed as active;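 further: 0% = full activity with enzyme and -100% = basal without enzyme; dose as in the result columns while the protocol names 77 µM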
# * marks the source's active call; other numbers are inactive results; ? = inconclusive; . = not tested or not shown; & = joins results of further samples. A portion of the library. The share of hits here may be higher or lower than overall.
SMILES,Rango dissoc inh,miR-21 reporter,Rango-impB inh,GLA inh pH 4.5
CC(C)(C)c1cc(NC(=O)C2CCCO2)no1 (configuration not stated),-9%,-48%,-0.2%,2
Cc1cc(C(=O)O)ccc1-c1ccc(/C=C2\NC(=O)N(Cc3ccc(F)cc3)C2=O)o1,?,-10%,?,-12
CC(C)(C)c1ccc(OCCC(=O)OCC(=O)N2c3ccccc3NC(=O)C2(C)C)cc1,-10%,.,0.0%,.
COCCNC(=O)CCC1CCN(C/C=C/c2ccccc2OC)CC1,-7%,0%,1.0%,.
Nc1ccccc1C#Cc1ccccc1,-21%,-49%,-0.9%,-18&-4
O=C(NCc1ccc2c(c1)OCO2)c1ccccc1,-3%,-14%,0.0%,-9
CS(=O)(=O)Nc1ccccc1C(=O)N1CCCC1,-5%,-2%,-0.2%,5
Cc1cc(C)nc(SCc2ccc(C(=O)N/N=C/c3ccco3)cc2)n1,-11%,-1%,-0.4%,12
CCCn1nc(C(=O)Nc2ccc3c(c2)OCO3)c2ccccc2c1=O,-11%,.,3.8%,.
O=C(CCl)NNc1cccc(Cl)n1,1%,-16%,-1.7%,3
COC(=O)c1ccc(COC(=O)CNS(=O)(=O)c2ccccc2)cc1,8%,2%,-2.4%,6
COc1ccc(-c2csc(NC(=O)c3c(C)noc3C)n2)cc1,0%,.,-0.9%,.
CSc1ccccc1OCc1cc(C(=O)N2CCN(C3CCCC3)C(=O)C2)no1,-18%,-29%,1.8%,.
CC1CCN(C(=O)Cn2c3ccccc3c3nc4n(c(=O)c32)CCCS4)CC1,-11%,-3%,4.3%,.
CCOc1ccc(S(=O)(=O)N(C)c2ccc(OCC(=O)N3CCOCC3)cc2)cc1,1%,0%,1.1%,-2
COC(=O)c1ccc(N/C(=N/S(=O)(=O)c2ccccc2)c2ccccc2)cc1,-11%,-20%,-0.6%,-12
CC(=O)C1=NOC2C(=O)N(c3ccccc3)C(=O)C12 (configuration not stated),-19%,0%,4.0%,.
O=C(NCc1ccco1)c1ccc2c(c1)S(=O)(=O)c1ccccc1C2=O,0%,.,-2.0%,.
COc1ccc(Br)cc1/C=C(\C(=O)O)c1ccc(S(=O)(=O)N2CCCCC2)s1,-11%,.,2.4%,.
O=C(CSc1nnc(-c2n[nH]c3ccccc23)n1-c1ccccc1)Nc1cccc(Cl)c1,11%,14%,-1.4%,9
Cc1ccc(N2CC(C(=O)N3CCN(Cc4ccc5c(c4)OCO5)CC3)CC2=O)cc1 (configuration not stated),1%,-2%,0.1%,.
O=C(c1ccco1)N1CCN(C(c2ccccc2)c2nnnn2C2CCCC2)CC1 (configuration not stated),-3%,-5%,-0.4%,-4
CC(c1ccccc1)N1CCN(C(=O)CCl)CC1 (configuration not stated),16%,?,-0.2%,-4
Cc1ccccc1NC(=O)CSc1n[nH]c(-c2ccccn2)n1,16%,22%,0.5%,.
COc1ccc(N2CCN(C(=O)CSc3nnc(NC(=O)C4CCC4)s3)CC2)cc1,-10%,-5%,-3.9%,-5

# (more compounds)
SMILES,Rango dissoc inh,miR-21 reporter,Rango-impB inh,GLA inh pH 4.5
Cn1c2ccccc2c2nn(-c3ccccc3)c(=O)cc21,?,-1%,?,3
CC(C)OCCCN1C(=O)c2[nH]nc(-c3ccccc3O)c2C1c1cccc(Cl)c1 (configuration not stated),13%,23%,0.5%,-5
CC(=O)c1ccc(NC(=O)c2cc(-c3cccs3)on2)cc1,7%,-14%,?,.
CCOc1ccc(C(=O)NC(C)C2COc3ccccc3O2)cc1 (configuration not stated),1%,-35%,1.8%,-2
CC(=O)N1CCN(c2ccc(NS(=O)(=O)c3ccc(C)cc3)cc2)CC1,1%,-1%,-3.0%,.
Cc1ccc(-c2nc(CS(=O)(=O)CC(=O)NCc3ccc4c(c3)OCO4)c(C)o2)cc1,-19%,-2%,0.4%,.
O=C(OCc1cccc(C(F)(F)F)c1)c1ccc[nH]c1=O,-2%,-4%,-1.9%,.
N#CCCn1cc(C(=O)N2CCCCC2)c(-c2ccc([N+](=O)[O-])cc2)n1,7%,0%,2.3%,13
COc1ccccc1NC(=O)COC(=O)Cn1cnc2c1c(=O)n(C)c(=O)n2C,2%,.,0.8%,.
NC(=O)c1ccccc1NC(=O)Nc1cccc(Cl)c1Cl,-1%,1%,0.0%,-15
CN=c1scc(-c2ccc(Cl)cc2)n1C,30%,-6%,-0.1%,4
O=C(NCc1nnc(SCC(=O)N2CCCCCC2)o1)c1ccco1,-4%,2%,4.1%,-3
COc1ccccc1Nc1nnc(SCC(=O)c2c(N)n(C3CC3)c(=O)[nH]c2=O)s1,9%,.,5.8%,.
COC(=O)[C@@]12CCCN1[C@H](c1ccc(-c3ccccc3)cc1)[C@H]1C(=O)N(C)C(=O)[C@H]12,-10%,.,0.0%,.
Cc1ccc2c(c1)N(C(=O)CCC(=O)NCc1ccccc1)CC(C)O2 (configuration not stated),-1%,0%,1.0%,.
O=C(COc1coc(CN2CCN(c3ccc(F)cc3)CC2)cc1=O)Nc1ccccc1,-6%,.,-1.2%,.
COc1ccc(S(=O)(=O)Nc2ccccc2C(=O)OC2CCCN(C)C2)cc1OC (configuration not stated),2%,1%,7.1%,7
COc1ccc(C2C(C(C)=O)=C(O)C(=O)N2c2ccc(Br)cn2)cc1 (configuration not stated),1%,-13%,3.3%,-2
CCOC(=O)c1cc2c(C)n(-c3ccc(OCC)cc3)c(C)c2ccc1=O,-28%,10%,4.0%,-20
CN1CCN(Cc2c(C#N)c3ccccc3n2C)CC1,-17%,-12%,-3.2%,2
CCOC(=O)c1c(NC(=O)CSc2nnc(-c3c[nH]c4ccccc34)n2C)sc2c1CCCC2,-8%,-4%,-0.1%,-3
Cn1c(SCCN2CCOCC2)nc2sc3c(c2c1=O)CCCC3,-12%,-9%,-3.8%,.
CCn1nc(C(=O)Nc2ccccc2C)c(Cl)c1Cl,23%,-17%,-0.2%,-4
O=C1OC(C(=O)Nc2ccccc2)Cc2ccccc21 (configuration not stated),20%,-53%,-0.6%,-2
CC1=NN(c2ccccc2)C(=O)C1N=Nc1cccc(O)c1 (configuration not stated),-4%,-36%,0.1%,.

# 6 entries already listed, arranged by their value in Rango dissoc inh, largest number first:
SMILES,Rango dissoc inh,miR-21 reporter,Rango-impB inh,GLA inh pH 4.5
CC(c1ccccc1)N1CCN(C(=O)CCl)CC1 (configuration not stated),16%,?,-0.2%,-4
COc1ccccc1NC(=O)COC(=O)Cn1cnc2c1c(=O)n(C)c(=O)n2C,2%,.,0.8%,.
COc1ccc(C2C(C(C)=O)=C(O)C(=O)N2c2ccc(Br)cn2)cc1 (configuration not stated),1%,-13%,3.3%,-2
Cc1ccc2c(c1)N(C(=O)CCC(=O)NCc1ccccc1)CC(C)O2 (configuration not stated),-1%,0%,1.0%,.
COCCNC(=O)CCC1CCN(C/C=C/c2ccccc2OC)CC1,-7%,0%,1.0%,.
COc1ccc(Br)cc1/C=C(\C(=O)O)c1ccc(S(=O)(=O)N2CCCCC2)s1,-11%,.,2.4%,.

# (further entries)
SMILES,Rango dissoc inh,miR-21 reporter,Rango-impB inh,GLA inh pH 4.5
COc1ccccc1/C=C/C(=O)N1CCN(S(=O)(=O)c2cccs2)CC1,14%,.,-1.7%,.
COc1ccc(CCC(=O)Nc2ncc(C)s2)cc1,-20%,-15%,0.3%,.
O=C(NCc1ccccn1)C12CC3CC(CC(C3)C1)C2,3%,-3%,2.6%,2
O=C(OCCCCN1C(=O)c2ccccc2C1=O)c1n[nH]c2ccccc12,-16%,-2%,-0.6%,0
S=c1[nH]ccn1Cc1ccccc1,-2%,5%,-2.5%,-6
O=C(CSc1nnc(NC(=O)c2c(F)cccc2F)s1)NC1CC1,20%,-8%,1.6%,.
C/C(Cn1nnc([N+](=O)[O-])n1)=N\NC(=O)c1cccc(Cl)c1,-2%,16%,0.8%,1
N#C/C(=C\c1ccc(-c2nc3ccccc3s2)o1)C(N)=O,?,-45%,?,-2
S=C(Nc1ccc2[nH]ccc2c1)NC1CCCCC1,-2%,-60%,1.4%,0
COc1ccc(CCN(C)CCCC(C#N)(c2cc(OC)c(OC)c(OC)c2)C(C)C)cc1OC (configuration not stated),-11%,-5%,-2.0%,3&-13
CCn1nc(NS(=O)(=O)c2ccccc2)c2cc3cccc(C)c3nc21,?,-5%,?,-1
COc1cccc(C(=O)COc2ccc(NC(=O)c3ccccc3)cc2)c1,-11%,-2%,-2.2%,.
Cc1ccc(CCNS(=O)(=O)c2ccc(C)cc2)cc1,-6%,-6%,-2.1%,-8
Cc1nc2sc(C#N)c(N)c2c2c1CCCC2,?,-23%,0.3%,3
Cc1nc2c(-c3ccccc3)c(C)nn2c(C)c1CCC(=O)N1CCOCC1,-3%,-2%,-0.6%,-8
CCOc1c(Br)cc(C(=O)NCCCn2ccnc2)cc1OC,-7%,-1%,3.5%,.
CC(=O)c1cccc(NC(=S)NC(=O)c2cccc(C)c2)c1,15%,-47%,5.9%,0
Nc1ccc2nn(-c3ccc(F)cc3)nc2c1,?,-39%,?,.
CCCC(=O)N1CCN(c2ccc(NC(=O)c3cccs3)cc2Cl)CC1,-14%,-2%,-3.7%,-3
COc1cc2c(cc1OC)CN(Cc1ccc(C)s1)CC2,-4%,-11%,1.5%,.
O=C1c2oc3ccc(Br)cc3c(=O)c2C(c2cccc(F)c2)N1CCO (configuration not stated),1%,-13%,-0.8%,-2
COC(=O)c1cc(OCC(=O)Nc2ccc3c(c2)CCC3)cc(C(=O)OC)c1,5%,.,0.1%,.
COc1ccc(-c2cc3c(=O)n(CC(=O)NCCCc4ccccc4)ncn3n2)cc1,0%,-37%,-0.8%,.
O=C(c1ccccc1Br)N1CCn2c1nc1ccccc12,0%,5%,-1.8%,2
O=C(CSc1nc2ccccc2c(=O)n1Cc1ccco1)NCCN1C(=O)CSC1=O,-15%,7%,-0.6%,-2

# The list goes on.
SMILES,Rango dissoc inh,miR-21 reporter,Rango-impB inh,GLA inh pH 4.5
OCC[C@H]1C[C@@H](O)[C@H](O)[C@]2(CCCO2)O1,3%,.,3.4%,.
Cc1ccc(S(=O)(=O)N2CCOCC2)cc1NC(=O)Cn1c(=O)ccn(Cc2ccccc2)c1=O,?,.,-1.5%,.
C=CCN(c1ccccc1OC)S(=O)(=O)c1cccc(C(=O)NCc2cccs2)c1,3%,.,-0.1%,.
CCc1c(-c2ccccc2)nc2sc3c(c2c1N)CCCC3,0%,-45%,1.1%,-2
COc1ccc(NC(=O)c2oc3ccccc3c2CSC)cc1S(=O)(=O)N1CCOCC1,15%,.,7.4%,.
O=C(NCc1ccccc1C(F)(F)F)C1CC(c2cccc(F)c2)=NO1 (configuration not stated),0%,0%,1.6%,2
CC(=NCCCNC1CCCCC1)C1=C(O)CC(C)(C)CC1=O,-13%,-15%,-1.7%,-8
COc1ccccc1-n1c(CNC(=O)COc2ccccc2)n[nH]c1=S,-14%,-1%,-0.1%,9
CC(=O)N(C(C)=O)c1nc2nc(C)cc(C)n2n1,0%,-2%,0.1%,-3
COc1ccc(N2CCN(S(=O)(=O)c3cc4c5c(c3)C(C)C(=O)N5CCC4)CC2)cc1 (configuration not stated),4%,.,-1.1%,.
CCOC(=O)c1cc2ccccc2n1CCN(CC)CC,20%,-5%,4.3%,3
O=C(OCn1nnc2ccccc2c1=O)C1=COCCO1,-4%,-10%,-2.3%,11
COc1ccc(NC(=O)C2CCCN2C(=O)OC(C)(C)C)cc1 (configuration not stated),6%,-4%,2.8%,1

# Arranged by number of heavy atoms (largest number first): some entries from above.
SMILES,Rango dissoc inh,miR-21 reporter,Rango-impB inh,GLA inh pH 4.5
COc1ccc(NC(=O)c2oc3ccccc3c2CSC)cc1S(=O)(=O)N1CCOCC1,15%,.,7.4%,.
COc1ccccc1-n1c(CNC(=O)COc2ccccc2)n[nH]c1=S,-14%,-1%,-0.1%,9
O=C(OCn1nnc2ccccc2c1=O)C1=COCCO1,-4%,-10%,-2.3%,11
